Tg IFNy HTS: blocks Toxoplasma gondii growth in the presence of IFN-gamma; Toxoplasma gondii growth in IFN-gamma-treated host cells; stronger effect = lower value; reference of the scale not given here; activity change, negative = inhibition, %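 (about 20 µM by stock and volumes)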; 3.8% of 69,000 active; AID 1259416;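 active = below -70%; inconclusive = fit judged invalid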;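 also: host cells are HeLa cells infected with Toxoplasma gondii; parasite growth read as luciferase light; one replicate is shown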
Active calls of the source: *; ? = inconclusive; & = joins results of further samples.

SMILES	Tg IFNy HTS
COC(=O)C[C@@H]1CC[C@@H]2[C@H](COC[C@@H](O)CN2S(=O)(=O)c2cn(C)cn2)O1	20
COc1ccccc1N1CCN(C(=O)c2csc(C(=O)NC3CC3)n2)CC1	8
CO[C@H]1CN(C)C(=O)c2cc(NS(C)(=O)=O)ccc2OC[C@@H](C)N(Cc2cncnc2)C[C@H]1C	53
O=S1(=O)CC(N2CCOCC2)c2ccccc21 (stereo not given)	16
CCN(C)Cc1ccc(-c2nc(-c3ccncc3)cc(=O)[nH]2)cc1	0
C=CCn1c(SCC(O)Cn2c3ccccc3c3ccccc32)nnc1-c1ccco1 (stereo not given)	-49
Oc1ccc(O)c2c1C1c3ccccc3C2c2ccccc21	18
O=C1[C@@H]2C[C@H](O)CCN2C(=O)CN1CCCN1CCOCC1	-2
O=C(O)Cc1ccc(F)c(-c2cccc3ccnn23)c1	2
CC(C)C(=O)NCc1cc(=O)n2c(n1)CN(Cc1ccoc1)CCC2	-2
COCCN(Cc1cccs1)C(=O)c1c(C)nc2ncccn12	-8
CNC(=S)N1CCc2sccc2C1C (stereo not given)	18
C/C=C/c1ccccc1[C@H]1[C@@H](CO)N(C(=O)CN2CCOCC2)[C@H]1C#N	0
CC(C)C(=O)NCc1csc(C2CCCN(C(=O)C(C)C)C2)n1 (stereo not given)	27
COC(=O)N[C@H](C(=O)N1CC2(CC2)C[C@H]1c1ncc(-c2ccc3c(c2)C(F)(F)c2cc(-c4ccc5nc([C@@H]6[C@H]7CC[C@H](C7)N6C(=O)[C@@H](NC(=O)OC)C(C)C)[nH]c5c4)ccc2-3)[nH]1)C(C)C	-36
COc1ccc(OC)c(C(=O)CSc2nnnn2C)c1	49
C[C@@H]1CCCCO[C@H](CN(C)Cc2ccncc2)[C@H](C)CN([C@H](C)CO)C(=O)c2cc(NS(=O)(=O)c3ccc(Cl)cc3)ccc2O1	-103*
CN1CCOCC2(CCC(CNS(=O)(=O)c3ccccc3)O2)C1 (stereo not given)	1
COc1ccc2c(c1)NC1(CCN(C(=O)Nc3cc(C)cc(C)c3)CC1)c1cccn1-2	414
Cc1ccc(Nc2cccc3ccccc23)cc1	-119*

In the list so far, these have four or more nitrogen atoms:
SMILES	Tg IFNy HTS
COc1ccccc1N1CCN(C(=O)c2csc(C(=O)NC3CC3)n2)CC1	8
CO[C@H]1CN(C)C(=O)c2cc(NS(C)(=O)=O)ccc2OC[C@@H](C)N(Cc2cncnc2)C[C@H]1C	53
CCN(C)Cc1ccc(-c2nc(-c3ccncc3)cc(=O)[nH]2)cc1	0
C=CCn1c(SCC(O)Cn2c3ccccc3c3ccccc32)nnc1-c1ccco1 (stereo not given)	-49
CC(C)C(=O)NCc1cc(=O)n2c(n1)CN(Cc1ccoc1)CCC2	-2
COCCN(Cc1cccs1)C(=O)c1c(C)nc2ncccn12	-8
COC(=O)N[C@H](C(=O)N1CC2(CC2)C[C@H]1c1ncc(-c2ccc3c(c2)C(F)(F)c2cc(-c4ccc5nc([C@@H]6[C@H]7CC[C@H](C7)N6C(=O)[C@@H](NC(=O)OC)C(C)C)[nH]c5c4)ccc2-3)[nH]1)C(C)C	-36
COc1ccc(OC)c(C(=O)CSc2nnnn2C)c1	49
C[C@@H]1CCCCO[C@H](CN(C)Cc2ccncc2)[C@H](C)CN([C@H](C)CO)C(=O)c2cc(NS(=O)(=O)c3ccc(Cl)cc3)ccc2O1	-103*
COc1ccc2c(c1)NC1(CCN(C(=O)Nc3cc(C)cc(C)c3)CC1)c1cccn1-2	414

Later entries.
SMILES	Tg IFNy HTS
Cn1ccnc1SCC(=O)Nc1ccc2c(c1)OCO2	-27
CO[C@H]1CN(C)C(=O)c2cc(NC(=O)c3ccc4c(c3)OCO4)ccc2OC[C@H](C)N(CCC(F)(F)F)C[C@H]1C	67
Cc1cccc(-c2nc(CN(c3ccccc3C)S(=O)(=O)c3cccs3)c(C)o2)c1	-14
COc1cccc(CNC(=O)c2cc3cc(S(=O)(=O)N(C)C)ccc3n2Cc2ccncc2)c1	-42
CCn1c(C2CCN(Cc3nccn3CCOC)CC2)n[nH]c1=O	-23
C[C@H](CO)N1C[C@H](C)[C@@H](CN(C)S(=O)(=O)c2cccc(C#N)c2)OCc2cn(nn2)CCCC1=O	-44
CN(C)C(=O)c1cn(C)nc1CC1CCN(S(=O)(=O)c2ccc(Cl)cc2)CC1	13
Cc1cccc(Nc2ncnc3c2cnn3-c2ccc(C)cc2C)c1	-37
CC(C)Oc1ccc(CNC(=O)c2nc(Nc3ccccc3)c3ccccc3n2)cc1	-11
CCOCC1CCN(C(=O)[C@H](O)C2CCCCC2)CC1	8
O=C(c1nc(Nc2ccc(F)cc2)c2ccccc2n1)N1CCOCC1	-4
Nn1cnnc1SCC(=O)N(C1CCCCC1)C1CCCCC1	11
COc1cccc(-c2ccc3c(c2)[C@H]2[C@H](CCN2S(=O)(=O)C2=NC(C)C=N2)[C@@H](CO)N3C)c1 (stereo not given in full)	-7
COc1ccc(S(=O)(=O)N(C)C[C@H]2Oc3c(NC(=O)c4nc5ccccc5s4)cccc3C(=O)N([C@H](C)CO)C[C@@H]2C)cc1	-55
O=C1NCCOc2ccc(S(=O)(=O)NCc3ccco3)cc21	-35
O=C(c1ccc2c3c(cccc13)CC2)C1CCCN(C(=O)c2n[nH]c3c2CCCC3)C1 (stereo not given)	-35
COc1cccc(-n2c(=O)c(C(=O)NC(C)c3ccccc3)c(O)c3cccnc32)c1 (stereo not given)	-13
Cc1ccccc1-c1ncc(C2CC(=O)Nc3c2c(C2CC2)nn3C)s1 (stereo not given)	-13
NC(=O)C1(N2CCCCC2)CCN(c2ccc(NC(=O)c3cccc(Cl)c3)cc2C(=O)O)CC1	4
O=C(C[C@H]1CC[C@@H]2[C@H](COC[C@@H](O)CN2S(=O)(=O)c2cccc(Cl)c2)O1)N1CCOCC1	22
O=C(NC1CCCCC1)SCc1ccccc1	33
O=c1[nH]c(=O)c2sc3nc(-c4ccc(Cl)cc4)cc(C(F)(F)F)c3c2[nH]1	90
Cc1noc(C)c1NC(=O)Nc1ccc2c(c1)CC(=O)N([C@@H](C)CO)C[C@@H](C)[C@@H](CN(C)Cc1ccc(C(F)(F)F)cc1)O2	20
O=C(NC1CCCC1)N[C@@H]1C=C[C@H](CC(=O)N2CCOCC2)O[C@@H]1CO	3
C[C@@H]1CN([C@H](C)CO)C(=O)c2ccccc2-c2ccccc2CO[C@@H]1CN(C)Cc1cccc(C(=O)O)c1	64
Cc1nnc(SCC(=O)c2ccccc2)n1C	-7
CCc1nc2cc(-c3c(OC)cccc3OC)ccc2o1	-7
Cc1ccc(NC(=O)C2CCCC2)c(-n2cnnc2)c1	-1
C[C@@H]1CN([C@H](C)CO)C(=O)c2c(c3ccccc3n2C)-c2ccccc2CO[C@H]1CN(C)C(=O)[C@H](Cc1ccccc1)N(C)C	?
O=C1CC2C(CCN2Cc2ccc(F)cc2)N1CCN1CCOCC1 (stereo not given)	-19
CCn1c(=O)c(-c2nc(-c3ccccc3Br)no2)c(O)c2ccc(F)cc21	-16
O=C([C@@H]1[C@@H](CO)[C@@H]2Cn3c(cccc3=O)[C@H]1N2)N1CCc2ccccc2C1	9
C=CCOCC1c2c(ncn2C)CCN1C(=O)c1cnc(C)cn1 (stereo not given)	-62
COc1ccc2c(c1)NC1(CCN(C(=O)Nc3cc(F)ccc3F)CC1)c1cccn1-2	190
COc1ccccc1OCC1CCCN(Cc2ccnc(N3CCCC3)n2)C1 (stereo not given)	-66
COc1cccc(Cl)c1-c1nc(N)nc(N)n1	-3
CC(C)C(NC(=O)c1cc(COc2ccccc2)[nH]n1)c1nccn1C (stereo not given)	-11
Cc1ccoc1C(=O)N1C[C@H](OCc2cccnc2)[C@@H]2OCCC[C@@H]21	5
C=CCOc1ccc(CNc2ccc3[nH]c(=O)[nH]c3c2)cc1OC	-9
CN(C)Cc1cnc2n1CCN(C(=O)c1cscn1)CC2	-10

Fetched by compound from the list above, 2 records:
SMILES	Tg IFNy HTS
C[C@@H]1CN([C@H](C)CO)C(=O)c2c(c3ccccc3n2C)-c2ccccc2CO[C@H]1CN(C)C(=O)[C@H](Cc1ccccc1)N(C)C	?
C=CCOc1ccc(CNc2ccc3[nH]c(=O)[nH]c3c2)cc1OC	-9

Carrying on.
SMILES	Tg IFNy HTS
OCCCc1nc2ccc(C(F)(F)F)cc2[nH]1	15
COc1ccc2c3c([nH]c2c1)[C@H](CO)N(Cc1cc(F)ccc1F)CC31CN(C(=O)C2CCC2)C1	?
Fc1cccc(Cl)c1-c1nccn1CCc1ncc[nH]1	2
C[C@@H]1CN([C@H](C)CO)C(=O)c2cccc(NS(=O)(=O)c3cn(C)cn3)c2O[C@@H]1CN(C)Cc1ccc(Oc2ccccc2)cc1	-24
CCc1cnc(N2CCCC3(CC(n4cnnc4)CO3)C2)nc1 (stereo not given)	14
O=C(CN1C(=O)CCc2cc(Br)ccc21)NC1CCCc2ccccc21 (stereo not given)	-94*
CC(=O)NCc1csc(C2CCCN(C(=O)c3cc(F)ccc3F)C2)n1 (stereo not given)	-23
COc1ccc2c3c(n(C)c2c1)[C@H](CO)N(C)CC31CCN(S(=O)(=O)c2cccc(F)c2)CC1	-52
CS(=O)(=O)N(CCCC(=O)NCc1ccco1)c1cc(Cl)ccc1Cl	99
COC(=O)CCC1CCCCN1C(=O)c1cc2ccccc2[nH]c1=O (stereo not given)	4
COCc1nc(N2C[C@H]3CC=CC[C@H]3C2)c2cnn(C)c2n1	-26
Cc1nc(-c2ccc(F)cc2)sc1CCNC(=O)c1cccs1	-31
Cc1cccc(NC2CS(=O)(=O)CC2O)c1 (stereo not given)	37
CCCS(=O)(=O)N1CCC2(CC(=O)N(Cc3c(C)noc3C)C2)C1 (stereo not given)	11
Cc1cc(C(=O)Nc2cccc3c2O[C@H](CN(C)C)[C@@H](C)CN([C@H](C)CO)C3=O)n(C)n1	8
CO[C@H]1CN(C)C(=O)c2cc(NC(=O)C3CCOCC3)ccc2OC[C@H](C)NC[C@H]1C	19
Cc1cc(N(C)Cc2nc3ccsc3c(=O)[nH]2)nc(-c2cccnc2)n1	-49
Cn1c(CCc2ccc(NCc3cnn4cccnc34)cc2)nc2ccccc21	279
COc1ccc(OC)c(S(=O)(=O)N2CCN(c3ccccc3F)CC2)c1	20
COc1cccc(-c2cccc(CN3C[C@H]4C[C@H](O)[C@H](O)C[C@H]4C3)c2)c1	-47

Among those listed so far, these have a cyano group.
SMILES	Tg IFNy HTS
C/C=C/c1ccccc1[C@H]1[C@@H](CO)N(C(=O)CN2CCOCC2)[C@H]1C#N	0
C[C@H](CO)N1C[C@H](C)[C@@H](CN(C)S(=O)(=O)c2cccc(C#N)c2)OCc2cn(nn2)CCCC1=O	-44

Going on with the list.
SMILES	Tg IFNy HTS
Cc1cccc(OCc2nnc(SCc3ccc(Cl)cc3)o2)c1	3
Cc1noc(C)c1NC(=O)Nc1ccc2c(c1)C(=O)N([C@@H](C)CO)C[C@@H](C)[C@H](CN(C)Cc1ccc3c(c1)OCO3)OCCCC[C@H](C)O2	72
Nc1nnc(SCC(=O)NC(CF)Cc2ccccc2)s1 (stereo not given)	4
CCN(C[C@@H]1[C@@H](c2ccccc2)[C@@H](CO)N1CC1CC1)C(=O)c1ccccn1	22
CC(C)CN1C[C@H]2[C@H](C(=O)Nc3ccccc3)CCS(=O)(=O)[C@H]2C1	1
O=C1[C@@H](Cc2ccc(O)cc2)N2C(=O)CCN(C(=O)NCc3ccccc3)[C@H]2CN1Cc1cccc2ccccc12	2
O=C(c1ccc(OCCCc2cnc[nH]2)cc1)C1CC1	38
CC(Cc1ccco1)NC(=O)c1cc2cc(S(=O)(=O)N(C)C)ccc2n1Cc1ccncc1 (stereo not given)	56
Cc1cc(C)c(NC(=O)CN2CCC(NC(=O)NC3CCCCC3)CC2)c(C)c1	-1
Cc1ccc(NC(=O)C(=O)NCCc2csc(-c3cccc(F)c3)n2)c(C)c1	-10
CC(C)c1nnc(NC(=O)C2CCCN(c3nc4ccccc4s3)C2)s1 (stereo not given)	6
O=C(c1cncc(Br)c1)N1CCC(N2CCCC2)CC1	16
Cc1ccc(C(=O)N2CCC[C@@]3(C(=O)N4CCOCC4)CN(c4ccccn4)C[C@H]3C2)cc1	-33
CN(C)CCNC(=O)c1cc2n(n1)CCN(S(=O)(=O)c1ccccc1)C2	97
CSc1ccc(CCNC(=O)c2nc(N3CCOCC3)c3ccccc3n2)cc1	-58
CN(CCOC(=O)c1cc(Cl)cc(Cl)c1)c1ccc(C#N)cn1	-19
c1ccc(-c2ccc(C3NCCc4[nH]cnc43)s2)cc1 (stereo not given)	84
COC(=O)C1(Cc2ccccc2F)NC(=O)CC2CCC1N2Cc1ccccc1 (stereo not given)	-77*
COc1ccc(CN2[C@@H](CO)[C@@H]3c4ccccc4N(C(=O)NC(C)C)C[C@@H]32)cc1	3
CCOC(=O)c1c[nH]c(C(=O)OCC)c1O	-3
Cn1cc(CN(CCO)C(=O)c2cccc(-c3cccc(F)c3)c2)cn1	-30
O=C1NCC2(CCCN(C(=O)c3cc(-c4ccccc4)on3)C2)O1 (stereo not given)	33
CSc1sc(C#N)c(C)c1C(C)=O	56
COc1cccc(C2(NC(=O)CCc3cc(Cl)no3)CCCC2)c1	-2
O=C(c1ccccc1-c1ncc[nH]1)N1CC[C@@H](N2CCCCCC2)[C@H](O)C1	-2
Cc1ccc(-c2ccc(C3[C@H]4CNC[C@@H]3N4C(=O)NC(C)C)cc2)cc1 (stereo not given in full)	-20&10
O=C(NCCc1csc(-c2ccc(C(F)(F)F)cc2)n1)C(=O)Nc1cccc([N+](=O)[O-])c1	61
Cc1noc(C)c1NC(=O)N1C[C@H](O)COC[C@H]2O[C@H](CC(=O)N3CCc4ccccc4C3)CC[C@@H]21	-45
Cc1ccc(NC(=O)CC(=O)NC(C)CCn2cccn2)cc1Cl (stereo not given)	1
Cn1/c(=N\N=C2CCCCC2)sc2ccccc21	17
C[C@H]1CN([C@@H](C)CO)C(=O)CCCn2cc(nn2)CO[C@H]1CN(C)C(=O)Nc1cccc(C(F)(F)F)c1	105
CC(C(=O)Nc1ncc(Cc2ccccc2F)s1)n1ccnc1 (stereo not given)	-10
Cc1nnc(N2C[C@@H](Oc3ncccc3F)[C@@H]3OCCC[C@@H]32)s1	-48
COc1cccc(CC(=O)NCC2Cn3nncc3CO2)c1 (stereo not given)	-26

Assay outcomes (PubChem BioAssay)

Not all compounds are listed (hit frequency here may not be typical).
